AID504770 = growth inhibition of E. coli YBA685, primary screen, V. cholerae RctB inhibitors; actives 0.27% (n = 130,000); z-score (no concentration beside the values); E. coli YBA685 rctB-dependent plasmid, OD600 growth, 3 h; active compounds read low;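 active means z-score under -2 on both plates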;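 further: wells of about 30 µL received 100 nL stock; score is relative to mean and SD of the test wells; the first replicate is given; strong numbers were not always called active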
Ba CapD inh = Bacillus anthracis CapD inhibitors, primary screen, biochemical, fluorescence intensity; CapD gamma-glutamyltranspeptidase (Bacillus anthracis Ames Ancestor); purified CapD enzyme, fluorescence intensity read-out; active compounds read low; some hits fall short of the stated cut; z-score (concentration not given with the values); actives 0.23% (n = 140,000); AID 492967, 2010;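 active means z-score under -4 in either of two replicates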;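 further: stock transfer was 100 nL into about 40 µL; score is relative to mean and spread of the plate; one replicate is shown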
* marks the source's active call; other numbers are inactive results; / = not tested or not shown.

SMILES	AID504770	Ba CapD inh
C=CCc1ccc(Oc2ccc([N+](=O)[O-])cn2)c(OC)c1	/	-0.325
O=C(COC(=O)Cc1cccc(C(F)(F)F)c1)Nc1ccc2c(c1)OCO2	0.2	/
CCOC(=O)c1c(C(F)(F)F)cc(-c2ccccc2)nc1C	-0.3	/
COc1ccccc1C(=O)Nc1ccc2c(c1)COC2=O	-0.15	0.965
CC1(C)CC(=O)C2=C(C1)NC(Nc1nc3ccccc3s1)=NC2c1cccnc1 (configuration not stated)	-0.15	24.2
COc1ccc(C2=NN3C(C2)c2cc(Cl)ccc2OC3c2ccncc2)cc1OC (configuration not stated)	/	-0.15
Cc1ccc(C(c2nnnn2CS(=O)(=O)c2ccc(C)cc2)N2CCCC2)cc1 (configuration not stated)	0.4	/
Cc1ccc(C(=O)N2CCN(c3ccccc3F)CC2)cc1S(=O)(=O)N1CCCC1	-0.95	-0.935
COc1ccc(Cc2n[nH]c(=S)n2-c2ccc(Cl)cc2)cc1OC	/	-0.025
COc1ccc2c(c1)c(C(=O)O)c(C)n2-c1ccc(Cl)cc1	-0.4	6.81
O=C1COCC(=O)N1c1ccccn1	0.1	0.085
CCN(CC)CCCNC(=O)c1sc2ncnc(N3CCCCC3C)c2c1C (configuration not stated)	/	-0.56
Cc1cccc(-c2nc(C)c(CCNC(=O)c3c(F)cccc3F)s2)c1	-1	0.18
CCOC(=O)C(CC)C(N)Cc1ccc(OC)c(OC)c1 (configuration not stated)	0.2	-0.33
O=C(CCCn1c(=S)[nH]c2cc3c(cc2c1=O)OCO3)NC1CCCCC1	1.5	-0.325
COC(=O)CS(=O)(=O)c1cc(C)c(Cl)cc1C	/	0.45
CCOC(=O)c1cc2sccc2n1CCC(=O)O	0.7	0.23
CNC(=O)n1nccc1-c1sc2ccccc2c1C	0.1	-0.93
Cc1cc(N2C(=O)C(N3C(=O)c4ccc([N+](=O)[O-])cc4C3=O)C2c2cccs2)ccc1Br (configuration not stated)	/	-0.525
O=C(c1ccc(CS(=O)(=O)Cc2ccc(Cl)cc2)o1)N1CCCC1	-0.2	-1.1
C=CCOC(=O)C1=C(C)OC(N)=C(C#N)C1c1c(C)nn(-c2ccccc2)c1Cl (configuration not stated)	/	0.545
CN1CCCN(C(=O)COc2ccc(C#N)cc2)CC1	0.85	1.45
COc1ccc(NC(=O)c2sc3ncn(CC(=O)Nc4ccc(C)c(Cl)c4)c(=O)c3c2C)cc1OC	/	-1.02
COc1ccc(/C=C/C(=O)Nc2ccc3nc4n(c(=O)c3c2)CCCC4)cc1	0.75	0.325
O=C(Oc1ccc2c(=O)c(Oc3ccccc3Br)c(C(F)(F)F)oc2c1)c1ccco1	/	0.205

5 records picked at random from the list so far, as already listed:
SMILES	AID504770	Ba CapD inh
COc1ccccc1C(=O)Nc1ccc2c(c1)COC2=O	-0.15	0.965
Cc1ccc(C(=O)N2CCN(c3ccccc3F)CC2)cc1S(=O)(=O)N1CCCC1	-0.95	-0.935
COc1ccc(C2=NN3C(C2)c2cc(Cl)ccc2OC3c2ccncc2)cc1OC (configuration not stated)	/	-0.15
CN1CCCN(C(=O)COc2ccc(C#N)cc2)CC1	0.85	1.45
CCOC(=O)C(CC)C(N)Cc1ccc(OC)c(OC)c1 (configuration not stated)	0.2	-0.33

New compounds follow:
SMILES	AID504770	Ba CapD inh
O=C(CSc1nc2[nH]ncc2c(=O)n1-c1cccc2ccccc12)Nc1ccc(Cl)cc1	/	-1.27
COC(=O)C1C(=O)NC(SC)=C(C#N)C1c1ccccc1F (configuration not stated)	-0.25	-0.575
CC1=C(C(=O)N(C)C)C(c2ccc(-c3ccccc3)cc2)NC(=O)N1 (configuration not stated)	-0.05	/
CCC(CC)NC(=O)Cc1ccc(F)cc1	-0.55	0.235
COc1ccc(-c2c(C)nn3c(NCC(OC)OC)cc(C)nc23)cc1OC	-0.05	-0.145
Cc1cccc(-c2nnc(SCC(=O)OC(C)C)n2C)c1	-0.05	/
Cc1cc(C)c2cc(C(=O)N(C)c3ccc(Cl)cc3)[nH]c2c1	0.15	-0.185
O=C(/C=C/c1cccc(Cl)c1)Nc1ccc(N2CCOCC2)cc1	-0.1	-1.75
COc1ccccc1NC(=O)c1c(NC(=O)C(C)(C)C)sc2c1CCC2	/	-0.01
CC1C(=O)C(C)C(c2ccccc2)NC1c1ccccc1 (configuration not stated)	0.95	0.24
O=C(CN1C(=O)/C(=C\c2cccs2)SC1=S)Nc1ccccc1	0.05	-0.53
O=C(c1cccs1)N1CCN(c2ncccn2)CC1	-1.2	-0.75
Cc1ccc(NC(=O)CSc2nccn2-c2ccc(Cl)cc2)cc1	0.1	-0.155
O=C(Nc1ccc(F)cc1)C1CCC(Cn2c(=S)[nH]c3ccccc3c2=O)CC1 (configuration not stated)	/	0.405
CCCSc1nnc2nc3c(nn12)c1ccccc1n3C	0.2	-0.355
CCOC(=O)c1sc(NN)nc1C	0.25	-1.04
N#CCCn1ncc(C#N)c1N	/	0.66
FC(F)(F)c1cc(-c2ccc3ccccc3c2)nn1C(=S)N1CCCCCC1	1.95	-1.53
Clc1cccc(-c2cnn(-c3ccc(Cl)c(Cl)c3Cl)c2)c1	/	-0.835
O=C(O)CSC(c1ccccc1)c1ccccc1	-0.1	/
c1cc2c(cc1C13CC4CC(CC(C4)C1)C3)n1nnnc1c1nnnn21	0.15	/
Cc1ccc(C=Nc2cccc(C#N)c2)s1	0.55	1.21
CC(=O)c1oc2ccc3c(C)cc(=O)oc3c2c1C	/	0.575
O=C(c1ccc(F)cc1Cl)N1CCc2c(F)c(F)c(F)c(F)c21	/	-0.13
CC(=O)C1=C(C)N=c2s/c(=C/c3ccc(-c4ccc([N+](=O)[O-])cc4)o3)c(=O)n2C1c1ccc(N(C)C)cc1 (configuration not stated)	/	-0.685
Next results
SMILES	AID504770	Ba CapD inh
Cc1cc2c3c([nH]c2cc1S(=O)(=O)NCCCN1CCOCC1)CC(C)(C)CC3=O	1.3	0.32
Cc1oc2c(CN(C)C)c(O)ccc2c(=O)c1-c1cscn1	-0.9	/
CCCN(CC1CC1)Cn1c(=S)sc2ccccc21	-0.45	/
CCCNS(=O)(=O)c1ccc(SC)cc1	1.1	-0.37
CCOC(=O)c1ccc(CNS(=O)(=O)c2c(C)ccc3nsnc23)o1	0	/
CO/N=C1\CC(C)(C)Cc2c(-c3ccn(C(=O)c4cccs4)n3)sc(SC)c21	2.3	-0.31
CC(C)c1cc(C(C)C)c(S(=O)(=O)N2CC3C4C=CC(C4)C3C2)c(C(C)C)c1 (configuration not stated)	-0.1	-0.47
CCN1C(=O)c2cccc3c(NC(=O)c4ccc(S(=O)(=O)N5CC(C)CC(C)C5)cc4)ccc1c23 (configuration not stated)	/	-0.94
Cc1cc2ncn(C(=O)c3ccccc3C(=O)O)c2cc1C	-1.3	-0.105
COc1ccc(/C=C2\COc3ccccc3C2=O)c(OC)c1	-0.05	/
COc1cc(NC(=O)c2ccc3c(=O)n(-c4ccc(F)cc4)c(=S)[nH]c3c2)cc(OC)c1OC	/	0.355
O=C(Nc1cccnc1)C1=NN(C2CCS(=O)(=O)C2)C(=O)CC1 (configuration not stated)	0.35	/
CCOC(=O)c1sc2nc[nH]c(=O)c2c1C	-0.35	-0.45
O=C(NCc1ccco1)C1Cc2cc(Cl)ccc2O1 (configuration not stated)	0.4	/
O=C(/C=C/c1cccs1)OCC1CCCO1 (configuration not stated)	-0.55	/
CCC(C)Sc1n[nH]c(=S)s1 (configuration not stated)	-0.45	-0.73
O=c1oc2ccccc2cc1-c1nn(-c2ccccc2)cc1C=NCc1ccccc1	-0.75	5.94
CCSc1nnc(CNC(=O)c2ccccc2)n1-c1ccccc1	-0.25	-0.345
COc1cc2c(c(OC)c1)C(c1ccccc1OC)CC(=O)N2 (configuration not stated)	-0.3	-0.125
O=C(NC1CCCCC1)N1CCN(Cc2ccccc2)CC1	-0.9	/
O=C(O)C1C2C=CC(C3CC23)C1C(=O)N1CCc2ccccc21 (configuration not stated)	-0.75	-1.16
CC(=O)Nc1nc(-c2ccccc2)cc(-c2ccco2)c1C#N	-0.15	42.3
O=C(COc1ccc(Cl)cc1)NCCc1ccccc1	-0.55	0.43
COc1cc(/C=C\C(=O)Nc2c3c(nn2-c2ccc(F)cc2)CS(=O)(=O)C3)cc(OC)c1OC	/	6.81
CCN1C(=O)NC(c2cccnc2)C(C(=O)OC)=C1C (configuration not stated)	-0.3	/

Compound profiles (already shown):
Shown for `COc1cc2c(c(OC)c1)C(c1ccccc1OC)CC(=O)N2` (configuration not stated) → AID504770 = -0.3; Ba CapD inh = -0.125
Shown for `O=C(COc1ccc(Cl)cc1)NCCc1ccccc1` → AID504770 = -0.55; Ba CapD inh = 0.43

(continued)
SMILES	AID504770	Ba CapD inh
Fc1cccc(CSc2nc3ccccc3c3nc4ccccc4n23)c1	-0.65	0.12
CC1Cc2ccccc2N1C(=O)/C=C/c1cccc(Br)c1 (configuration not stated)	-0.55	-2.82
CCN1CCN(CC(O)COCCC23CC4CC(CC(C4)C2)C3)CC1 (configuration not stated)	0.55	0.435
O=C(O)CCCN1C(=O)/C(=C2/C(=O)N(CC(=O)O)c3ccc(Br)cc32)SC1=S	/	-2.49
CC(Sc1nnc(-c2cccs2)n1C1CC1)C(=O)c1ccc(F)c(F)c1 (configuration not stated)	-0.45	/
OCCSc1nc2ccccc2n1CCOc1ccccc1	-0.05	1.12
COc1cc2c(cc1OC)CN(S(=O)(=O)c1ccc3c(c1)CCC(C)(C)O3)CC2	-0.15	0.79
Clc1ccc(N/N=C2/CN3CCC2CC3)c(Cl)c1	-1.15	-0.02
CCc1ccc(NC(=O)N2CC(CC)Sc3ccccc32)cc1 (configuration not stated)	-0.25	0.95
Cc1ccc(/C=C2\CC/C(=C\c3ccc(C)o3)C2=O)o1	-0.7	1.2
CCOc1ccccc1NC(=O)Nc1cc(C(=O)O)ccc1C	-0.55	2
CC(C)(C)c1nc2scc(-c3ccccc3)c2c(=O)o1	0.15	-1.3
O=C(/C=C/c1ccco1)N/N=C/c1csc([N+](=O)[O-])c1	/	-3.27
C=CCn1c(=N)c(C(N)=O)cc2c(=O)n3ccccc3nc21	2.3	/
CC(C)(C)c1ccc(N2C(=O)/C(=C/c3ccc(-c4cc(Cl)ccc4Cl)o3)C=C2c2ccccc2)cc1	/	-0.445
Cn1c(=O)c2cc(C(=O)O)sc2c2ccccc21	1.9	47.5
CC1CCN(Cn2cnn(CN3CCC(C)CC3)c2=S)CC1	0.9	/
O=C(Nc1nc(-c2ccccc2)cs1)C1CCCO1 (configuration not stated)	-0.2	0.37
Cc1cc(Nc2ccc3c(c2)OCCO3)n2ncnc2n1	-0.75	-1.07
CCN(CC(=O)Nc1ccccc1OC)CC(=O)NC1CCCc2ccccc21 (configuration not stated)	-0.8	/
NCCC(c1ccccc1)c1ccco1 (configuration not stated)	-0.55	0.59
COc1ccc(C2=NS(=O)(=O)N(C)C(C(=O)N(C)Cc3ccccc3)=C2)cc1	0.9	10.4
O=C(Nc1nnc(C(F)(F)F)s1)c1ccccc1	-0.65	/
CCN(CCC#N)c1ccc(CNCC2CN(Cc3ccccc3)CCO2)c(C)c1 (configuration not stated)	0.15	/
CC1=C(CCN2CCN(c3ccccc3)CC2)C(C)(C)CCC1	1.15	0.475

An excerpt from above in order of molar mass, high to low.
SMILES	AID504770	Ba CapD inh
Fc1cccc(CSc2nc3ccccc3c3nc4ccccc4n23)c1	-0.65	0.12
CCOc1ccccc1NC(=O)Nc1cc(C(=O)O)ccc1C	-0.55	2
Cc1cc(Nc2ccc3c(c2)OCCO3)n2ncnc2n1	-0.75	-1.07

Going on with the list.
SMILES	AID504770	Ba CapD inh
COC(=O)c1cc(-c2ccccc2)no1	-0.35	-0.39
Cn1c2ccccc2c2cc(C(=O)O)sc21	0	/
CC1CC(=O)C2=C(C1)Nc1ccccc1N(C(=O)COc1ccccc1)C2c1ccco1 (configuration not stated)	-1.05	/
CCN1C(=O)/C(=C2/Sc3ccc(Cl)cc3N2C)SC1=S	/	0.03
CN(C)S(=O)(=O)c1ccc2oc3n[nH]c(=S)n3c2c1	-0.25	/
Cc1ccccc1NC(=S)Nc1ccc(C#N)cc1	-0.55	/
O=C1CN(C(=O)Cn2nnc(-c3cccc(C(F)(F)F)c3)n2)c2ccccc2N1	-0.35	/
O=C1Nc2cc(C(F)(F)F)ccc2Oc2ccsc21	/	-0.22
CC(C)C(NS(=O)(=O)c1cccs1)C(=O)NCc1ccccc1Cl (configuration not stated)	-0.2	1.31
Cc1ccc(-c2nc3ccccc3[nH]2)cc1	-1.3	39.4
COCCn1c(C)cc(/C=C(\C#N)c2ccc(C)cc2)c1C	-0.45	-1.19
Oc1ccc(C2Nc3cccc4cccc(c34)N2)cc1	/	26.5
CNc1ccccc1C(N)=O	/	74.7
O=C1CCc2cc(S(=O)(=O)N3CCc4ccccc43)cc3c2N1CC3	0.15	/
COc1ccc(OC)c(CNc2ccc3c(c2)nc(C)n3C)c1	-0.85	10.3
CNc1ccccc1C(C)(C)c1cc(-c2ccccc2)no1	1.7	0.35
COc1cnc(SCc2ccc(Cl)cc2)nc1Sc1ccccc1	/	-0.155
O=C(CSc1nc(NCc2ccc(Cl)cc2)c2ccccc2n1)Nc1nccs1	/	1

Structures listed so far that have a nitro group on carbon:
SMILES	AID504770	Ba CapD inh
C=CCc1ccc(Oc2ccc([N+](=O)[O-])cn2)c(OC)c1	/	-0.325
Cc1cc(N2C(=O)C(N3C(=O)c4ccc([N+](=O)[O-])cc4C3=O)C2c2cccs2)ccc1Br (configuration not stated)	/	-0.525
CC(=O)C1=C(C)N=c2s/c(=C/c3ccc(-c4ccc([N+](=O)[O-])cc4)o3)c(=O)n2C1c1ccc(N(C)C)cc1 (configuration not stated)	/	-0.685
O=C(/C=C/c1ccco1)N/N=C/c1csc([N+](=O)[O-])c1	/	-3.27

Bioassay records (PubChem BioAssay)
